Bm FixLJ act – B. multivorans fixK reporter activation; B. multivorans fixK-promoter GFP reporter, 18 h; active compounds read high; z-score (test concentration not listed); hit rate 0.3% among 29,000;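 active = replicate mean overnight rise in green fluorescent reporter signal, 3 or more SD over negative controls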;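 also: score is relative to vehicle wells of the plate; 300 nL library stock went into each well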
The depositor's hits bear a star; & = joins results of further samples. Some of the compounds tested; the hit share may differ from the screen's.

SMILES | Bm FixLJ act
COc1ccc(CN2C(=O)C(NC(=O)c3ccccc3OC)(C(F)(F)F)N=C2c2ccccc2)cc1 (stereo not drawn) | -0.94
CCc1nn(-c2ccccc2)c2nc(-c3cccc(OC)c3)c3cc(OC)c(OC)cc3c12 | -0.31
COc1cccc(NC(=O)c2oc3ccccc3c2NC(=O)c2ccc(C(F)(F)F)cc2)c1 | 1.2
CCOc1ccccc1C1C(C(=O)Nc2ccccc2)=C(C)Nc2c(C(=O)Nc3ccc(F)cc3)cnn21 (stereo not drawn) | 0.22
O=C1CCN(C(=O)c2coc(COc3cccc(F)c3)n2)CCN1 | -1.2
O=C(NC1CCCCC1)c1ccc2c(c1)N(Cc1ccc(Cl)cc1)C(=O)c1ccccc1S2=O (stereo not drawn) | 0.06
CCOc1ncccc1CNC(=O)c1cccc(NCc2ccccn2)c1C | -0.98
CCOC(=O)c1ccc(NC(=O)c2sc3ccccc3c2Cl)cc1 | -1.1
COc1ccc(N2C(=O)Cc3cc(OC)c(OC)cc3C2c2ccc(F)cc2)cc1 (stereo not drawn) | -2.7
NC1CC(c2cc(N3CCN(C4CCCCC4)CC3)ncn2)C1 (stereo not drawn) | 0.39
Cc1ccc(S(=O)(=O)n2nc(-c3ccc(Cl)cc3)nc2NCc2ccccc2)cc1 | 0.14
O=C(Cn1ncc2c3ccccc3n(Cc3cccc(Cl)c3)c2c1=O)NCc1cccs1 | 11*

Reformatted as tab-separated lines: entries from further up.
Structure	Bm FixLJ act
CCOc1ccccc1C1C(C(=O)Nc2ccccc2)=C(C)Nc2c(C(=O)Nc3ccc(F)cc3)cnn21 (stereo not drawn)	0.22
O=C1CCN(C(=O)c2coc(COc3cccc(F)c3)n2)CCN1	-1.2
O=C(NC1CCCCC1)c1ccc2c(c1)N(Cc1ccc(Cl)cc1)C(=O)c1ccccc1S2=O (stereo not drawn)	0.06
CCOc1ncccc1CNC(=O)c1cccc(NCc2ccccn2)c1C	-0.98
CCOC(=O)c1ccc(NC(=O)c2sc3ccccc3c2Cl)cc1	-1.1
COc1ccc(N2C(=O)Cc3cc(OC)c(OC)cc3C2c2ccc(F)cc2)cc1 (stereo not drawn)	-2.7
NC1CC(c2cc(N3CCN(C4CCCCC4)CC3)ncn2)C1 (stereo not drawn)	0.39

Other results:
SMILES | Bm FixLJ act
Cc1cc(C)c2oc(-c3cccc(NC(=O)c4ccc(Br)o4)c3)nc2c1 | -0.63
COc1ccc(-c2cc(-c3ccc(F)cc3)nc3c2COc2ccccc2-3)cc1 | 0.65
O=C1CN(C(=O)c2ccc(Cl)cc2Cl)C(c2ccc(F)cc2)c2cc(F)ccc2N1 (stereo not drawn) | -0.87
CCOc1ccccc1-n1nnc(S(=O)(=O)c2ccc(C)cc2)c1N | -0.29
O=C(NCCc1nc2ccccc2c(=O)[nH]1)c1ccc(-c2ccco2)cc1 | -2.4
COc1ccc(OC)c(/C=C/C(=O)Nc2ccc(C(=O)OCCC(C)C)cc2)c1 | 1.9
Cc1cc(C(=O)Nc2c(C)nn(Cc3ccc(F)cc3)c2C)no1 | 2.1
O=C(CC1N=C2c3ccccc3N=C(SCC(=O)Nc3ccccc3F)N2C1=O)NCc1cccs1 (stereo not drawn) | -1.5
Cc1ccc(S(=O)(=O)c2cn(CC(=O)Nc3ccc4c(c3)OCO4)c3ccc(F)cc3c2=O)cc1 | -1.6
Cc1cc(F)ccc1NC(=O)c1csc2c1CCC(C)C2 (stereo not drawn) | -0.43
FC(F)(F)c1cccc(N2CCN(Cc3nnc(-c4ccccc4)o3)CC2)c1 | -1.8
CCCN1CCN(C(=O)CCc2ccccc2)C2CS(=O)(=O)CC21 (stereo not drawn) | 1.1
COc1ccc(-c2cc3nc(C)c(CCC(=O)N4CCN(c5ccc(F)cc5)CC4)c(C)n3n2)c(OC)c1 | 1.1
CCCn1c(=O)c2sccc2n2c(CCCC(=O)Nc3ccccc3OCC)nnc12 | -0.73
COc1cccc(-n2cc(CN(C)C(=O)c3ccc(C#CC(C)(C)O)cc3)cn2)c1 | 0.93
CCCc1nc(CNS(=O)(=O)N2CCN(C)CC2)cs1 | 0.29
O=C(NCC(c1ccccn1)N1CCOCC1)c1csc2c1CCCC2 (stereo not drawn) | -0.73
CC[N+](CC)(CC)CCOc1cccc(OCC[N+](CC)(CC)CC)c1OCC[N+](CC)(CC)CC | -1.2&-0.53
COc1ccccc1-c1noc(CCCC(=O)NCc2ccco2)n1 | -2.4
CCc1nccn1CCNC(=O)c1ccc(NS(=O)(=O)CC)cc1 | -2.6
CCOc1ccc(S(=O)(=O)Nc2nc3ccccc3nc2Nc2ccc(OC)cc2)cc1 | -0.05
COc1ccc(OC)c(-c2csc(-c3c(N)c(C(=O)c4ccccc4)n4ccccc34)n2)c1 | -1.1
Cc1ccc(NC(=O)C2CCN(S(=O)(=O)c3cccc4nsnc34)CC2)cc1F | 0.26
CN(C)S(=O)(=O)n1cc(/C=C(\NC(=O)c2ccccc2Cl)C(=O)NCCCn2ccnc2)c2ccccc21 | -1.6
Cc1ccc(NC(=O)C2CC(=O)N(c3ccc(OC(C)C)cc3)C2)cc1 (stereo not drawn) | -1.3
O=C(NCCc1ccc(Cl)cc1)c1nnc(Cc2ccc(F)cc2)o1 | -0.04
COC(=O)c1c(NC(=O)/C=C/c2ccc(OC)cc2)sc2c1CCC2 | -1.4
O=C(CCc1nc2ccc(F)cc2[nH]1)NC1COC2C(O)COC12 (stereo not drawn) | 1.8
COc1ccc(-c2cc3nc(C)c(CCC(=O)NCc4ccccc4Cl)c(C)n3n2)c(OC)c1 | -0.4
Cc1ccc(C2C=C(c3ccc(Cl)cc3)Nc3nc(NC(=O)c4ccco4)nn32)cc1 (stereo not drawn) | -0.43
COc1ccccc1CNC(=O)C1CCN(c2nnc(C)c3c(C)n(-c4ccccc4)nc23)CC1 | -0.35
COc1ccc(NC(=O)CCCSc2nc(-c3ccco3)cc(C(F)(F)F)n2)cc1 | -0.74
CCC1CN(C(=O)CCNC(C)=O)CCC(=O)N1Cc1ccccc1 (stereo not drawn) | -0.1
Cc1ccc2nc(C)cc(C(=O)NC(CC(C)C)c3ncnn3C)c2c1 (stereo not drawn) | -1.1
Cc1ccc(Cl)cc1NC(=O)C(C)n1nnc2sc3c(c2c1=O)CCCC3 (stereo not drawn) | -0.62
Cc1ccc(NC(=O)c2c(C)nc3sc(C(=O)Nc4ccc(F)cc4)c(N)c3c2-c2ccc(C)o2)c(C)c1 | -1.1
Cc1ccc(N(CC(=O)Nc2ccc(C)c(Cl)c2)S(=O)(=O)c2cccs2)cc1 | -0.7
O=C(Cn1nnc(-c2ccc(C(F)(F)F)cc2)n1)NCCc1ccccc1 | -1.4
COc1ccccc1NC(=O)c1sc2nc(C)c(C(=O)Nc3ccc(C)cc3C)c(-c3ccc(Br)cc3)c2c1N | 0.8
COc1cccc(CCNC(=O)c2c(O)nc3ccccn3c2=O)c1 | -0.15
COc1ccc(Cl)cc1NC(=O)Cn1c(=O)n(Cc2ccco2)c(=O)c2cccnc21 | -0.6
Cc1cccc(-c2nc3c4ccccc4nc(NCc4ccc(F)cc4)n3n2)c1 | 1.2
COCCNC(=O)CCc1nc2cccnc2n1Cc1ccc(OC)cc1 | 0.38
COc1ccc(NC(=O)c2oc3ccccc3c2NC(=O)Cc2cccs2)c(OC)c1 | 2.2
CC12CN3CC(C)(CN(C1)C3c1ccc(OCc3ccccc3)cc1)C2=O (stereo not drawn) | -1.1
CC(=O)c1ccc(NS(=O)(=O)c2c(C)nc3scc(C)n3c2=O)cc1 | -0.81
COc1ccc(OCCn2c(C(C)Oc3ccccc3)nc3ccccc32)cc1 (stereo not drawn) | 1.6
CCOc1ccc(C(=O)Nc2onc3c2CCCC3)cc1 | -0.96
O=C(CCCCn1c(=O)c2ccccc2n(Cc2cccc(F)c2)c1=O)NCCc1ccccc1 | 0.31
Cc1nc2nc(NCc3ccccc3Cl)[nH]n2c(=O)c1Cc1ccccc1 | -3
COc1ccc(NC(=O)c2nnn(Cc3ccc(Br)cc3F)c2N)c(OC)c1 | 0.16
Cc1ccc(N2CCN(C(=O)CCc3c(C)nc4ncnn4c3C)CC2)c(C)c1 | -0.24
COc1ccc(CCNc2nc(-c3ccc(F)cc3)cc(C(F)(F)F)n2)cc1OC | 2.4
COCc1nc(CN2CCN(c3nc4ccccc4o3)CC2)no1 | -0.39
O=C(NCCc1ccccc1)N1CCCN(C(=O)c2cc(C(F)F)[nH]n2)CC1 | 0.47
Cc1cc(C)cc(NC(=O)Cn2cc(C(=O)c3cccs3)c3ccccc32)c1 | -0.18
COc1ccc(-n2nc(C(=O)N3CCN(c4cccc(C(F)(F)F)c4)CC3)c3c4ccccc4n(C)c3c2=O)cc1Cl | 0.92
CN(Cc1cc(-c2cccnc2)no1)C(=O)c1csc(-c2ncccn2)n1 | -0.29
Cc1ccc(C)n1-c1nnc(N2CCCC(C(=O)Nc3ccc(C(C)C)cc3)C2)s1 (stereo not drawn) | -0.49
CCOC(=O)c1c(NC(=O)c2cc(C(C)C)on2)sc(C(C)=O)c1C | 1.3

(cont.)
SMILES | Bm FixLJ act
Cc1ccc(OCCN)c(C(=O)NC2CCCC2Cc2ccc(F)cc2)c1 (stereo not drawn) | -0.7
Cc1cccc(-c2nc3c(cnn3-c3ccccc3)c(=O)n2-c2cccc(Cl)c2)c1 | 0.57
COc1ccc(-c2ccc3c(N)c(C(=O)NCc4ccc(C)cc4)sc3n2)cc1 | -0.1
CCCNC(=O)CSc1nc2nc(C)c(Cc3ccccc3Cl)c(C)n2n1 | -0.94
Cc1ccc(NC(=O)CC2Sc3ccccc3NC2=O)c(Br)c1 (stereo not drawn) | -1.1
Cc1cc(C)cc(CN2CCN(c3cc(C(=O)NC(C)C)ccn3)CC2=O)c1 | 1.5
Fc1ccccc1Cc1cn2cc(-c3ccc(Cl)cc3)nc2s1 | -0.8
CCN1C(=O)c2ccccc2S(=O)(=O)c2ccc(C(=O)NCc3ccc(OC)cc3)cc21 | 0.32
CCc1nn(CC(=O)Nc2ccc(C)cc2C)c(=O)c2cc3sccc3n12 | -1.5
Cc1ccc(-c2ccc(CCC(=O)N3CCC(CS(N)(=O)=O)C3)o2)cc1 (stereo not drawn) | -1.2
CC1CCCCN1C(=O)Cn1c(=O)n(-c2ccc(Cl)cc2)c(=O)c2c3c(sc21)CCC3 (stereo not drawn) | -0.65
COCCCNC(=O)c1cc2c(=O)oc3ccc(C)cc3c2s1 | -0.07
CCc1ccccc1N(C)C(=O)c1cc2c(s1)-c1c(C)cccc1OC2 | 0.31
Cc1ccn2c(Nc3ccc4c(c3)OCO4)c(-c3ccc(Cl)cc3)nc2c1 | 0.21
CCNC(=O)C1CC(N)CN1C(=O)c1cccc2c1OCC2 (stereo not drawn) | 0.55
COc1cc2c(=O)n(Cc3ccccc3Cl)c(=O)n(CC(=O)Nc3ccccc3)c2cc1OC | -0.47
CCS(=O)(=O)CCNC(=O)N(CCc1ccccc1)C1CCN(C)CC1 | 0.35
COc1ccccc1NC(=O)C1=C(C)Nc2nc(-c3ccco3)nn2C1c1cccc(C)c1 (stereo not drawn) | -2.9
CCN(CC)CCOC(=O)c1ccc(NC(=O)CCn2c(=O)oc3ccccc32)cc1 | -1.6
COc1cc(NC(=O)c2ccc(C(=O)Nc3cc(OC)c(Cl)cc3OC)cc2)c(OC)cc1Cl | -1.6
Cc1cc2ccccc2n1CCC(=O)N(CCO)Cc1nccn1C | -2.1
CCn1c(CN2CCCC2)nnc1C1CCN(S(=O)(=O)C2CC2)CC1 | -0.46
CCn1c(C(=O)Nc2cc(Cl)ccc2C)cc2sc(Cl)cc21 | -0.88
COc1ccc(CCNC(=O)c2ccc3c(Cl)c4c(nc3c2)CCCC4)cc1OC | 0.5
Cc1nnc(NC(=O)c2nc(SCc3ccccc3F)ncc2Cl)s1 | 1.4
CCc1nn(CC(=O)NCCc2ccc(OC)c(OC)c2)c(=O)c2cc3occc3n12 | 1.8
Cc1c(CC(=O)N2CCCCC2)c(=O)oc2cc(O)ccc12 | -0.89
CCN1CC2(CCCN(C(=O)c3cnc(C4CC4)[nH]c3=O)C2)CCC1=O (stereo not drawn) | 0.77
CC(C)Oc1ccccc1NC(=O)CSc1nccn1C | -2.6
CCOc1ncccc1C(=O)N1CCn2nc(C(O)c3nccn3C)cc2C1 (stereo not drawn) | -1.3
O=C(Nc1ccc(OC(F)(F)F)cc1)c1noc2c1CCCC2 | -1.9
Cc1cccc(N2CCN(c3cc(C4CC(O)C4)ncn3)CC2)c1C (stereo not drawn) | 0.9
Cc1nn(C)c(C)c1CN(C(=O)CN1CC(c2ccccc2)CC1=O)C1CC1 (stereo not drawn) | -1.1
CC(C)c1nc(C(=O)NC2COCC2Cc2ccnc3ccccc23)cs1 (stereo not drawn) | -1.7
O=C(Nc1ccc(Cl)cc1C(=O)c1ccccc1)c1ccccc1Br | 2.1
COc1cc2nc(SCC(=O)Nc3cccc(C)c3)n3nc(-c4ccccc4)nc3c2cc1OC | -0.82

2 entries picked at random from those above:
SMILES | Bm FixLJ act
CCN1CC2(CCCN(C(=O)c3cnc(C4CC4)[nH]c3=O)C2)CCC1=O (stereo not drawn) | 0.77
CCc1nn(CC(=O)NCCc2ccc(OC)c(OC)c2)c(=O)c2cc3occc3n12 | 1.8

Shown as comma-separated lines: 3 of the compounds above.
compound,Bm FixLJ act
COc1ccc(OCCn2c(C(C)Oc3ccccc3)nc3ccccc32)cc1 (stereo not drawn),1.6
COc1ccc(-c2cc3nc(C)c(CCC(=O)N4CCN(c5ccc(F)cc5)CC4)c(C)n3n2)c(OC)c1,1.1
COc1ccc(NC(=O)c2oc3ccccc3c2NC(=O)Cc2cccs2)c(OC)c1,2.2

(continued)
SMILES | Bm FixLJ act
COc1ccc(OC)c(NC(=O)Cn2ncc3c2-c2ccccc2OC3)c1 | -1.6
CCc1noc(CN(CC)C(=O)NCc2nccn2C(C)C)n1 | -0.79
CCc1c(C)nc2nncn2c1NCc1ccc(OC)cc1 | -1.5
O=C(NCc1cccc(Cl)c1)C(=O)Nc1ccc2nc3n(c(=O)c2c1)CCCCC3 | 1.6
Cc1cccc(Cn2c(SCc3ccc(C(=O)NCCc4ccccc4)cc3)nc3ccncc32)c1 | -5.8
COc1ccc2nc(C)cc(Nc3ccc(Cl)c(Cl)c3)c2c1 | -1.6
Cc1ccccc1OCCSc1nc(C)c(Cc2ccccc2)c(=O)[nH]1 | -0.23
CCn1cc(CNC(=O)c2cc(-c3ccc(C)cc3)nc3ccc(Br)cc23)c(C)n1 | -4.8

Screens deposited in PubChem by ICCB-Longwood Screening Facility, Harvard Medical School.
